From PubChem BioAssay
HNF4A DNA FP – change in binding of human HNF4 alpha to DNA; HNF4a-FITC DNA binding, fluorescence polarization, 1 h; P41235; actives 0.3% (n = 360,000); activity change, % at 10 µM; in the data active = activity change above about 30%, passing the limit was not always enough;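 also: controls were the assay level and a saturating level of protein; the project sought stronger binding though the title names inhibitors; some compounds called inactive have numbers as strong as hits; positive values seem to mean higher polarization but the record does not say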
E coli growth – inhibitors of Escherichia coli growth | AID 1053175 | OD600 absorbance (test concentration not listed) | actives 0.21% (n = 330,000) | OD600, 23 h; hits give low values;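 active = OD600 absorbance below the run mean of sample wells minus 3.6 SD, in any replicate, cut at about 0.56 in these data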;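 also: stock transfer was 300 nL into about 60 µL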
FGF22 binding – FGF22 (human) thermal shift binding | Q9HCT0 | recombinant FGF22 thermal shift, SYPRO orange fluorescence; percent of sucrose octasulfate shift, DMSO zero | calls only at 9.99 µM | actives 1.5% (n = 340,000) | AID 651658;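 active = melting point raised past a set limit in the mean and every replicate; three in four hits are not shown here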
Target sequence (Q9HCT0 whole entry, looked up): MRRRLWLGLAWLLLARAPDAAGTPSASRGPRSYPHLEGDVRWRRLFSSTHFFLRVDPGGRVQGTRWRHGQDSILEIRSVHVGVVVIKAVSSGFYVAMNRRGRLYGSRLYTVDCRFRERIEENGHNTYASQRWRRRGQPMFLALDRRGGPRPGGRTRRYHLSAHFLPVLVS
ALR H2O2 inh – human ALR oxidase inhibition via reduced H2O2. P55789. purified ALR, DTT oxidation, H2O2 HRP-luminol luminescence. inhibition, % (concentration not given with the values). actives 3.8% (n = 290,000). AID 485317;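 active = mean and each replicate at 75% or more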;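 also: stock transfer was 7.5 nL into about 7.5 µL; 0% = neutral wells and 100% = wells with inactivated enzyme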
Target sequence (P55789 whole entry, looked up): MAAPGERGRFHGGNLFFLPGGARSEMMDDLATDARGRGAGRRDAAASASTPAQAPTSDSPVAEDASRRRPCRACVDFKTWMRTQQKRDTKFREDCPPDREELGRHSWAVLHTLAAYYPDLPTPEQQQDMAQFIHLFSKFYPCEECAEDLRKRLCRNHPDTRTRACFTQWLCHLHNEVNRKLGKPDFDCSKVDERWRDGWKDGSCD
rRNA inh HTS – inhibits bacterial ribosomal RNA function over humanized ribosomes; GFP signal change (wild-type ribosome), % (concentration not given with the values); E. coli WT GFP vs humanized-ribosome RFP mutants, fluorescence, 24 h; hits give low values; DMSO median 0, no signal -100; actives 1.6% (n = 350,000);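 active = significant combined selectivity score with lowered wild-type GFP, culture density cut under 30%, mutant RFP and density less affected; inactive = any of these conditions unmet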; also: one replicate is shown; some compounds called inactive have numbers as strong as hits
B2AR ag – agonists of human beta-2 adrenergic receptor inducing internalization; Am2.2-beta2AR cells, FAP receptor internalization, flow cytometry; reference of the scale not given here; response, % (test concentration not listed); actives 0.43% (n = 340,000); AID 504454;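 active = response above a set limit, near 3 SD of response in nonfluorescent compounds, cut at about 42% in these data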;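 also: stock transfer was 100 nL into about 11 µL; a reference agonist was the positive control; negative values mostly stem from fluorescent compounds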
UCH37 DUB inh – blocks the human deubiquitinase UCH37; actives 0.33% (n = 330,000); inhibition, % (concentration not given with the values); purified proteasome/UCH37, Ub-AMC cleavage fluorescence;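 active = mean of two replicates above 20%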;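 also: 0% = compound-free wells with enzyme and 100% = wells lacking proteasome; stock transfer was 100 nL into about 20 µL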
Target sequence (Q9Y5K5 whole entry, looked up): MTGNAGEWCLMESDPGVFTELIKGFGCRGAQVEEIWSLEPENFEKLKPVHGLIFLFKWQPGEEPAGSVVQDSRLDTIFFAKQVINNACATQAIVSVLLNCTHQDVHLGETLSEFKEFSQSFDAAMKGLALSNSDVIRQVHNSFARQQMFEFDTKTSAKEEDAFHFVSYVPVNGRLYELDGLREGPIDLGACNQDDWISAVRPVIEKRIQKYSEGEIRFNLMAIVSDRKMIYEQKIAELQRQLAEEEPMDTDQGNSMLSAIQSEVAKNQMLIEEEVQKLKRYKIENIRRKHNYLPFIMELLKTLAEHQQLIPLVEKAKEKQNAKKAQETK
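Material: human UCH37 enzyme supplied as purified proteasome complex. Measure: % inhibition of Ub-AMC cleavage fluorescence. Medium: pH 7.4 Tris-HCl (50 mM) with ovalbumin, ATP-MgCl2, DTT. Times: 30 min preincubation with enzyme, 25 min cleavage at room temperature. Detection: AMC fluorescence intensity at 355/460 nm.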
rRNA inh HTS OD600 – further read-out of rRNA inh HTS, marked with its call; OD600 change, %; measured here: OD600 growth;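 optical density of the mix in the first replicate; 0 = DMSO median and -100 = no signal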
rRNA inh HTS RFP – further read-out of rRNA inh HTS, marked with its call; RFP signal change, %; measured here: RFP humanized mutant strains;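 first replicate; 0 = DMSO median and -100 = no signal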
* hit, by the source's call; i = inactive; nt = not tested or not shown. A portion of the library. The share of hits here may be higher or lower than overall.

1. O=C(NCCc1c[nH]c2ccccc12)c1ccc([N+](=O)[O-])cc1
2. CCOc1ccc(-c2nc(C)sc2CC(=O)O)cc1
3. Cc1cc(C)n2cc(CSc3nnnn3-c3ccccc3)nc2n1
4. CC12CCC(=O)N1C(C(=O)OCC(=O)Nc1cccc(S(=O)(=O)N3CCCCCC3)c1)CS2 (stereo not drawn)
5. CC(=O)c1cc2c(cc1NC(=O)c1cc(C)nn1-c1ccccc1)OCO2
6. COc1ccccc1CNc1nc(C)c(C(C)=O)s1

assay / compound	1	2	3	4	5	6
HNF4A DNA FP	-1.0	1.4	-3.9	0.9	3.9	2.2
E coli growth	0.67	0.73	0.67	0.67	0.75	0.69
FGF22 binding	i	i	nt	i	i	i
ALR H2O2 inh	-1	-7	-3	nt	nt	-1
rRNA inh HTS	-1	6	nt	-3	14	5
rRNA inh HTS OD600	4	2	nt	7	8	6
rRNA inh HTS RFP	2.7	-5.9	nt	5.9	1.9	4.3
B2AR ag	-11	0	-12	-4	-5	-14
UCH37 DUB inh	1.6	4.8	-4.9	0.3	-81	10

7. COc1ccc(NC(=O)[C@H](Cc2c[nH]c3ccccc23)NC(=O)[C@@H]2Cc3ccccc3CN2)cc1
8. CCS(=O)(=O)c1ccc2oc(Nc3ccc(C(C)(C)C)cc3)nc2c1
9. Cc1nnc(SCC(=O)c2ccc(C(C)C)cc2)s1
10. COc1ccc(C)cc1NC(=O)C(OC(=O)C1CC1)c1ccccc1 (stereo not drawn)
11. CC1=C(C)CC2C(C1)C(=O)c1ccc(Br)cc1S2(=O)=O (stereo not drawn)
12. NC(=O)N/N=C/c1ccccc1OCC(=O)NCc1ccccc1

assay / compound	7	8	9	10	11	12
HNF4A DNA FP	-0.7	-1.5	2.0	-1.1	0.1	0.6
E coli growth	0.69	0.71	0.71	0.69	nt	nt
FGF22 binding	i	i	i	i	i	nt
ALR H2O2 inh	-20	3	nt	-6	4	-6
rRNA inh HTS	nt	8	-19	-11	20	nt
rRNA inh HTS OD600	nt	11	-14	-3	11	nt
rRNA inh HTS RFP	nt	0.3	-2.2	-3.4	2.5	nt
B2AR ag	5	6	0	2	-4	5
UCH37 DUB inh	-4.1	-0.8	4.1	6.7	0.3	nt

13. CC(C)(C)[C@H]1CCC(=O)N([C@H](CSc2ccc(Br)cc2)Cc2ccccc2)CC1
14. Cc1ccc(NC(=O)c2nc[nH]c2C(=O)N[C@@H](C)C(=O)OC(C)(C)C)cc1
15. CCCN1C2=NS(=O)(=O)CCN2c2ccccc21
16. Oc1ccc(/C=N/N2CCN(C3c4ccccc4-c4ccccc43)CC2)cc1O
17. CC1CCCN(C(=O)CSc2n[nH]c(-c3cccs3)n2)C1 (stereo not drawn)
18. NNC(=O)c1oc2nc(-c3cccs3)cc(-c3ccco3)c2c1N

assay / compound	13	14	15	16	17	18
HNF4A DNA FP	1.1	-2.0	0.7	-3.1	0.5	16
E coli growth	nt	nt	0.76	nt	0.62	nt
FGF22 binding	i	i	nt	i	i	i
ALR H2O2 inh	-3	4	-4	nt	23	-3
rRNA inh HTS	3	11	nt	4	1	11
rRNA inh HTS OD600	6	14	nt	-7	-2	0
rRNA inh HTS RFP	-3.8	-0.9	nt	7.7	-0.5	0.8
B2AR ag	2	12	-4	20	-3	-34
UCH37 DUB inh	1.9	2.9	4.4	nt	0.9	nt

19. O=C(OCC1OC(n2ccc(=O)[nH]c2=O)C(Cl)C1O)c1ccccc1 (stereo not drawn)
20. CCCCn1c(N)c(N(CC(C)C)C(=O)c2ccc(C)c(S(=O)(=O)N3CCCCC3)c2)c(=O)[nH]c1=O
21. O=C(O)c1cccnc1Sc1ccccc1
22. O=C(O)c1ccc(Nc2ncnc3c2cnn3Cc2ccccc2)cc1
23. Cc1ccc(C2CC(c3ccco3)n3ncnc3N2)cc1 (stereo not drawn)
24. COc1ccc2[nH]c3c(c2c1)CCNC3C1CC=C(C)CC1 (stereo not drawn)

assay / compound	19	20	21	22	23	24
HNF4A DNA FP	2.7	2.0	4.1	-0.3	0.6	4.5
E coli growth	0.67	0.61	0.71	0.71	0.73	0.64
FGF22 binding	i	i	nt	i	i	i
ALR H2O2 inh	8	nt	-2	0	69	-1
rRNA inh HTS	0	3	nt	-5	-1	-11
rRNA inh HTS OD600	5	10	nt	-2	3	-14
rRNA inh HTS RFP	-0.5	2.6	nt	-3.1	1.8	-0.5
B2AR ag	8	6	0	-8	3	21
UCH37 DUB inh	5.8	-1.4	5.6	6.7	0.8	2.4

25. Cc1occc1C(=O)N/N=C/C=C/c1ccc(N(C)C)cc1
26. CCOc1ccccc1C(=O)N(Cc1ccco1)C1CCS(=O)(=O)C1 (stereo not drawn)
27. Cc1c(C(=O)N2CCN(c3ccc([N+](=O)[O-])cc3)CC2)sc2ncn(CC(=O)N3CCOCC3)c(=O)c12
28. O=C(NCCc1c[nH]c2ccccc12)/C(=C/c1cccnc1)NC(=O)c1ccco1
29. COc1cc2c(cc1OC)CN(C(=O)c1cc(=O)c3ccccc3o1)CC2
30. CCN(C(=S)NC(=O)C1CCCC1)C1CCCCC1

assay / compound	25	26	27	28	29	30
HNF4A DNA FP	24	-1.9	5.9	-4.0	1.3	2.2
E coli growth	nt	0.73	0.67	0.66	0.74	0.7
FGF22 binding	i	nt	i	i	nt	i
ALR H2O2 inh	99*	-4	33	-2	-1	nt
rRNA inh HTS	-10	nt	-1	-5	nt	3
rRNA inh HTS OD600	7	nt	-3	-5	nt	-7
rRNA inh HTS RFP	-2.5	nt	1.5	0.4	nt	-0.1
B2AR ag	9	-2	0	-7	-9	-2
UCH37 DUB inh	nt	-1.5	14	0.7	-2.3	3.9

31. Cc1c(C(=O)N/N=C/c2ccccc2)[nH]c2c([N+](=O)[O-])cccc12
32. C(=C(c1ccccc1)c1ccccc1)c1ccccn1
33. CC(C)Oc1ccc(C(CC(=O)O)Cc2ccccc2)cc1 (stereo not drawn)
34. Cn1ccc2c(-c3ccc(C(F)(F)F)cc3)cc3c(c21)C1CCC3O1 (stereo not drawn)
35. O=C(O)c1cccc(-n2cccc2/C=C\[N+](=O)[O-])c1
36. Cc1ccccc1/C=C1\CCCc2ccccc2C1=O

assay / compound	31	32	33	34	35	36
HNF4A DNA FP	2.4	0.2	-0.4	1.3	-15	0.3
E coli growth	nt	0.67	0.68	nt	0.7	0.68
FGF22 binding	i	i	i	i	i	nt
ALR H2O2 inh	nt	4	-5	nt	53	-8
rRNA inh HTS	1	-39*	10	-15	4	nt
rRNA inh HTS OD600	7	-6.4*	9	-15	0	nt
rRNA inh HTS RFP	3.4	-5.7*	1.8	-3.4	5.2	nt
B2AR ag	-9	-1	7	nt	-2	3
UCH37 DUB inh	nt	0.7	4.1	nt	2.8	-0.2

37. Cc1ccc(-c2nc(C#N)c(NCc3cccc4c3OCO4)o2)cc1
38. O=C(O)CS/C(=C\c1ccc(F)cc1)c1nc2ccccc2s1
39. Cc1ccc(N2C(=O)c3cccc4c(N)ccc(c34)C2=O)c2cccnc12
40. CCCn1c(N)c(N(CCOC)C(=O)C(C)Oc2ccc(F)cc2)c(=O)[nH]c1=O (stereo not drawn)
41. CC(=O)c1ccc(NC(=O)C2Cc3ccccc3CN2C(=O)c2ccccc2)cc1 (stereo not drawn)
42. Cc1ccc(C(=O)NC(=S)Nc2cccc3c(C)cc(C)nc23)cc1

assay / compound	37	38	39	40	41	42
HNF4A DNA FP	-1.1	nt	-103	1.6	-3.5	-1.3
E coli growth	0.66	0.64	0.76	0.72	0.68	0.67
FGF22 binding	nt	nt	i	nt	i	nt
ALR H2O2 inh	-2	29	-2	-2	23	-2
rRNA inh HTS	nt	nt	35	12	nt	nt
rRNA inh HTS OD600	nt	nt	9	9	nt	nt
rRNA inh HTS RFP	nt	nt	2.6	-0.2	nt	nt
B2AR ag	-6	nt	-36	-2	4	0
UCH37 DUB inh	-30	6.7	11	-1.3	6.9	3.9

43. Nc1ccc(S(=O)(=O)c2ccccc2)nc1
44. O=C(CCc1c[nH]c2ccccc12)N1CCCC1
45. c1ccc2c(c1)C(=NC1CCCCC1)NC2=NC1CCCCC1
46. O=C(Nc1ccccn1)C1CCCN1S(=O)(=O)c1ccc(Cl)cc1 (stereo not drawn)
47. O=C(CCc1nnc(-c2ccc(-c3ccccc3)cc2)o1)N1CCCCC1
48. CN(C(=O)c1cccc(NC(=O)Cc2cccc([N+](=O)[O-])c2)c1)C1CCCC1

assay / compound	43	44	45	46	47	48
HNF4A DNA FP	3.3	1.9	1.6	-1.6	2.8	0.5
E coli growth	0.66	0.66	0.65	0.7	0.7	0.67
FGF22 binding	i	i	nt	i	i	i
ALR H2O2 inh	nt	1	-3	9	-7	1
rRNA inh HTS	3	2	nt	0	1	-4
rRNA inh HTS OD600	3	4	nt	0	9	-1
rRNA inh HTS RFP	0.9	-1.3	nt	-0.2	13	-12
B2AR ag	-2	-1	3	-9	-11	-4
UCH37 DUB inh	2.2	7.3	-6.4	0.9	3.6	2.2

Quoted at random: three compounds from above.
48. CN(C(=O)c1cccc(NC(=O)Cc2cccc([N+](=O)[O-])c2)c1)C1CCCC1
43. Nc1ccc(S(=O)(=O)c2ccccc2)nc1
46. O=C(Nc1ccccn1)C1CCCN1S(=O)(=O)c1ccc(Cl)cc1 (stereo not drawn)

assay / compound	48	43	46
HNF4A DNA FP	0.5	3.3	-1.6
E coli growth	0.67	0.66	0.7
FGF22 binding	i	i	i
ALR H2O2 inh	1	nt	9
rRNA inh HTS	-4	3	0
rRNA inh HTS OD600	-1	3	0
rRNA inh HTS RFP	-12	0.9	-0.2
B2AR ag	-4	-2	-9
UCH37 DUB inh	2.2	2.2	0.9

Carrying on:
49. Cc1ccc(N2C(=O)c3ccccc3C2C(=O)c2cc(C)ccc2O)cc1 (stereo not drawn)
50. O=C(CNc1cc(S(=O)(=O)N2CCOCC2)ccc1N1CCCC1)N1CCc2ccccc21
51. Cc1ccc(-n2ncc3c2CCCC3NC(=O)CCC2=NNC(=O)CC2)cc1C (stereo not drawn)
52. CN(CC(=O)Nc1ccccc1Br)C(=O)c1ccccc1-c1nc2ccccc2s1
53. CCOc1ccc(N(CC(=O)NCc2ccccc2Cl)S(=O)(=O)c2c(C)noc2C)cc1
54. O=C(CCn1cncn1)N1CCCC(N2CCN(c3cccc(C(F)(F)F)c3)CC2)C1 (stereo not drawn)
55. COc1cccc(NC(=O)COC(=O)C2CCCCC2)c1

assay / compound	49	50	51	52	53	54	55
HNF4A DNA FP	0.3	-1.1	-4.9	2.4	-1.0	2.7	-1.0
E coli growth	0.67	0.7	0.7	0.7	0.66	0.71	0.66
FGF22 binding	i	nt	i	i	i	i	i
ALR H2O2 inh	-17	-8	-1	-9	-5	-1	nt
rRNA inh HTS	-17	5	2	-37	-2	-3	-5
rRNA inh HTS OD600	-7	6	8	-53	12	2	-1
rRNA inh HTS RFP	1.0	5.9	0.4	-4.2	-2.3	-0.3	2.5
B2AR ag	13	-9	-1	4	6	3	1
UCH37 DUB inh	-0.1	-1.3	2.0	1.0	0.9	0.0	2.1
